# VACV Venus inh: vaccinia inhibition (Venus reporter). 0.46% of 330,000 active. Potency, µM (highest dose often 36.5 µM), without a hit: top-dose activity change, negative = inhibition, actives largely listed as inhibitors. Vaccinia virus Venus reporter expression, fluorescence. AID 720580; active means well fitted inhibition curve with a large enough effect; inconclusive means small, poorly fitted or top-dose-only effect; inactive means no such curve, though single readings can be large or run the other way; tested in A549 cells; further: nearly all actives have a fitted effect of over 30% in size; inactives centre near -10
# VACV mCherry inh: inhibitors of vaccinia virus infection (mCherry reporter signal) | Vaccinia virus mCherry reporter infection, fluorescence; about a quarter of the inactives have no number | Potency, µM (top dose mostly 36.5 µM), for the others: top-dose activity change, negative = inhibition, usual class: inhibitors | 0.63% of 310,000 active | AID 720579; active = well fitted inhibition curve with a large enough effect; inconclusive = small, poorly fitted or top-dose-only effect; inactive = no such curve, though single readings can be large or run the other way; tested in A549 cells; further: nearly all actives have a fitted effect of over 35% in size; inactives centre near -10
# Numbers without * were called inactive; i = inactive; ? = inconclusive; / = not tested or not shown; & = joins results of further samples. On the % scale 0 is the no-effect control and ±100 the full control effect; potency means the concentration at half of the fitted maximal effect. Compounds were not picked by outcome (roughly 0.87% active in at least one column).
# The opening 20 compounds (preview)
SMILES,VACV Venus inh,VACV mCherry inh
COc1cc(NC(=O)c2ccccc2F)c(OC)cc1NC(=O)CN1CCCCC1,-17%,-13%
CCCc1nc2ccccc2n1CCOC,-10%,-14%
O=c1cc(-c2ccccc2)oc2ccccc12,-4%,-3%
Cc1ccccc1CSCC(=O)Nc1c(C)n(C)n(-c2ccccc2)c1=O,-11%,-9%
N/C(=N\OC(=O)CCc1ccccc1)c1ccc(Cl)cc1,-6%,-18%
Cc1cc2nc(-c3cccc(NC(=O)COc4ccc(Cl)c(C)c4)c3)oc2cc1C,-11%,-4%
CC(=O)Nc1ccc(S(=O)(=O)NCCC(=O)Nc2ccc(C)c(F)c2)cc1,5%,-9%
Oc1ccc(Cl)cc1C1=NNC(c2cc(Br)cc3c2OCOC3)C1 (centres undefined),-18%,-23%
CC(C)CNC(=O)c1ccc2c(c1)C(=O)N(Cc1ccco1)C2=O,-2%,i
COCCn1c(SCC(=O)NC(C)c2ccc(F)cc2)nc2ccccc21 (centres undefined),3%,i
Cc1cccc(NC(=S)NC2CC3CCC(C2)N3Cc2ccco2)c1C (centres undefined),0%,i
Cc1cc(C(=O)OCc2nc3ccccc3s2)c(C)o1,-16%,i
COC(=O)c1sc(N2C(=O)c3oc4ccc(C)cc4c(=O)c3C2c2ccc(O)c(OC)c2)nc1C (centres undefined),-10%,-16%
COc1ccc(-c2nc3ccc(Br)cn3c2Cc2ccc(C)cc2)cc1OC,-1%,i
COCCNC(=O)Cn1c(=O)n(CCCC(=O)NCc2ccc3c(c2)OCO3)c(=O)c2sccc21,1%,-4%
CN(Cc1ccccc1)C(=O)c1ccc(Nc2nc(C(N)Cc3ccc(C(F)(F)F)cc3)cs2)nc1 (centres undefined),?,-28%
CC(C(=O)NCc1ccccc1)N1Cc2ccccc2C1=O (centres undefined),-10%,-14%
COc1ccc(C)cc1-n1c(C)cc(C=O)c1C,-5%,-8%
CN(C)c1ccc(CNC(=O)Cn2c(=O)oc3cc(S(=O)(=O)NCc4ccccc4)ccc32)cc1,-12%,-15%
COc1ccc(-c2nc(SCC(=O)NCc3ccccc3Cl)n[nH]2)cc1,?,-30%

# Results, from the start:
SMILES,VACV Venus inh,VACV mCherry inh
COc1cc(NC(=O)c2ccccc2F)c(OC)cc1NC(=O)CN1CCCCC1,-17%,-13%
CCCc1nc2ccccc2n1CCOC,-10%,-14%
O=c1cc(-c2ccccc2)oc2ccccc12,-4%,-3%
Cc1ccccc1CSCC(=O)Nc1c(C)n(C)n(-c2ccccc2)c1=O,-11%,-9%
N/C(=N\OC(=O)CCc1ccccc1)c1ccc(Cl)cc1,-6%,-18%
Cc1cc2nc(-c3cccc(NC(=O)COc4ccc(Cl)c(C)c4)c3)oc2cc1C,-11%,-4%
CC(=O)Nc1ccc(S(=O)(=O)NCCC(=O)Nc2ccc(C)c(F)c2)cc1,5%,-9%
Oc1ccc(Cl)cc1C1=NNC(c2cc(Br)cc3c2OCOC3)C1 (centres undefined),-18%,-23%
CC(C)CNC(=O)c1ccc2c(c1)C(=O)N(Cc1ccco1)C2=O,-2%,i
COCCn1c(SCC(=O)NC(C)c2ccc(F)cc2)nc2ccccc21 (centres undefined),3%,i
Cc1cccc(NC(=S)NC2CC3CCC(C2)N3Cc2ccco2)c1C (centres undefined),0%,i
Cc1cc(C(=O)OCc2nc3ccccc3s2)c(C)o1,-16%,i
COC(=O)c1sc(N2C(=O)c3oc4ccc(C)cc4c(=O)c3C2c2ccc(O)c(OC)c2)nc1C (centres undefined),-10%,-16%
COc1ccc(-c2nc3ccc(Br)cn3c2Cc2ccc(C)cc2)cc1OC,-1%,i
COCCNC(=O)Cn1c(=O)n(CCCC(=O)NCc2ccc3c(c2)OCO3)c(=O)c2sccc21,1%,-4%
CN(Cc1ccccc1)C(=O)c1ccc(Nc2nc(C(N)Cc3ccc(C(F)(F)F)cc3)cs2)nc1 (centres undefined),?,-28%
CC(C(=O)NCc1ccccc1)N1Cc2ccccc2C1=O (centres undefined),-10%,-14%
COc1ccc(C)cc1-n1c(C)cc(C=O)c1C,-5%,-8%
CN(C)c1ccc(CNC(=O)Cn2c(=O)oc3cc(S(=O)(=O)NCc4ccccc4)ccc32)cc1,-12%,-15%
COc1ccc(-c2nc(SCC(=O)NCc3ccccc3Cl)n[nH]2)cc1,?,-30%
CCOc1ccc(NC(=O)C2CCN(S(=O)(=O)c3c(C)noc3/C=C/c3cccs3)CC2)cc1,-16%,-8%
COC(=O)c1ccc(NC(=O)CC2C(=O)N(c3cccc(OC)c3)C(=O)N2Cc2ccco2)cc1 (centres undefined),-8%,-3%
O=C(CO/N=C/c1ccccc1OC(F)F)NC1CCCCC1,1%,i
Cc1nc(SCCC(=O)O)c2ccccc2n1,-1%,-14%
Cc1ccc(O)c(NC(=O)c2ccc3c(c2)C(=O)N(Cc2cccnc2)C3=O)c1,-12%,i

# Single records (already shown). Values in the order: VACV Venus inh	VACV mCherry inh
# Record of O=c1cc(-c2ccccc2)oc2ccccc12 → -4%	-3%
# Record of CC(C(=O)NCc1ccccc1)N1Cc2ccccc2C1=O (centres undefined) → -10%	-14%

# (next part)
SMILES,VACV Venus inh,VACV mCherry inh
COc1ccc(CCNC(=O)c2cc3c(=O)[nH]c4ccc(C)cc4c3s2)cc1OC,-17%,-18%
CC(Cc1cccs1)NC(=O)c1cccs1 (centres undefined),-15%,i
Cc1ccc(C)c(NC(=O)C2C(c3ccccc3)C2(Cl)Cl)c1 (centres undefined),-13%,-13%
CC(=O)Nc1cc(-c2ccccc2Cl)cn2c(-c3ccc(S(C)(=O)=O)cc3)cnc12,-10%,28%
O=C(Cn1nnc2ccccc21)OCC(=O)c1ccc(F)cc1,-2%,i
C/C=C\C=C/C(=O)Nc1cccc(C2=NOC3(C2)C[C@@H](C(N)=O)N(C(=O)CCCCC)C3)c1 (some centres undefined),-7%,-12%
CCn1c(Cc2ccccc2)nnc1SCC(=O)Nc1nc2ccccc2s1,-13%,/
Cc1ncc([N+](=O)[O-])n1CC(=O)N/N=C/c1ccccc1F,-13%,-9%
CC1CN(c2nc3ccccc3cc2-c2ccccc2)CC(C)O1 (centres undefined),-8%,i
Cc1ccc(-c2nc3nc(C)cc(N4CCN(c5cc(Cl)ccc5C)CC4)n3n2)cc1,-2%,-15%
Cc1ccc(C)c(NC2=C(Cl)C(=O)OC2OC(=O)c2ccco2)c1 (centres undefined),-12%,-27%
CCCc1noc(-c2ccc(-c3ccccc3)cc2)n1,-6%,-14%
C#CCOc1ccc(/C=N/NC(=O)c2cccnc2)cc1OCC,-16%,-5%
COCCn1cnc2c1c(=O)n(CC(=O)NC(=O)NC(C)(C)C)c(=O)n2Cc1ccccc1,-4%,-15%
CCS(=O)(=O)N1Cc2ccccc2CC1C(=O)N(C)CC(=O)Nc1cccc(F)c1 (centres undefined),-12%,-17%
COc1ccc(CCNCC(=O)N2C(C)CCCC2C)cc1OC (centres undefined),-10%,i
CCCC(=O)NCCc1cc2c(C)ccc(C)c2[nH]c1=O,-7%,i
O=C(COC(=O)c1ccc(S(=O)(=O)NCc2ccco2)cc1)NCc1ccccc1,7%,i
Cc1cc(C)c2oc(-c3cccc(NC(=O)c4cccc(F)c4)c3C)nc2c1,-4%,-14%
CCN1CCC(N(Cc2ccc(F)cc2)C(=O)Nc2cc(C)ccc2C)CC1,-3%,0%
COc1ccc(NC(=O)CC2C(=O)N(c3ccc(C)cc3)C(=O)N2Cc2ccc3c(c2)OCO3)cc1 (centres undefined),-3%,i
C[C@H]1CN([C@@H](C)CO)C(=O)CCCn2cc(nn2)CO[C@@H]1CN(C)C(=O)C1CCCCC1,-18%,-25%
c1ccc(-c2cnn3nnnc3n2)cc1,-17%,i
O=C(Nc1ccc(F)cc1)c1ccc(=O)[nH]n1,-10%,i
O=C1CCN(CC2CCCCC2)C=C1C(=O)c1ccccc1,-11%,-2%

# The list goes on:
SMILES,VACV Venus inh,VACV mCherry inh
CC(Cc1ccccc1)NC(=O)CCCCC(=O)NC(C)Cc1ccccc1 (centres undefined),-14%,i
COC(=O)c1ccc(C(=O)NC(=S)Nc2nc3c(s2)CCCC3)cc1,-4%,-5%
CC1(c2ccccc2)NC(=O)N(CC(=O)NCCC2=CCCCC2)C1=O (centres undefined),-4%,-16%
CC(C)(C)OC(=O)N1CCC(c2c(C(=O)NCc3ccccc3)cnn2-c2ccccc2)CC1,-4%,-8%
COC(=O)C(C)Sc1ccc2nnc(-c3cccc(F)c3)n2n1 (centres undefined),-7%&-11%,7%&36%
CCCC(=O)NC1=C(N2CC2)C(=O)C(NC(=O)CCC)=C(N2CC2)C1=O,-25%,?
COc1ccccc1C(=O)NNC(=O)CCCN1C(=O)/C(=C/c2cccs2)SC1=S,-18%,-21%
O=C1CSC(c2ccccc2[N+](=O)[O-])N1c1cccc(F)c1 (centres undefined),-1%,i
CCC(=O)c1c[nH]c(C(=O)NCCCN2CCOCC2)c1,-8%,/
CCOc1ccccc1N1CC(C(=O)Nc2ccc(S(=O)(=O)N3CCCCC3)cc2)CC1=O (centres undefined),-7%,-21%
COc1cccc(N2[C@@H](CC(=O)O)c3ccccc3S2(=O)=O)c1,-5%&-14%,-12%&-5%
CC1=C(CC(=O)O)c2cc(F)ccc2C1=Cc1ccc(S(C)(=O)=O)cc1,-10%,i
Cc1ccc(NC(=O)CN2C(=O)N/C(=C/c3ccc(C)s3)C2=O)cc1,5%,-11%
Cc1cccn2c(=O)c3cc(C(=O)N4CCCC(C)C4)sc3nc12 (centres undefined),2%,-15%
Cc1ccc2cc(CN(CCN3CCOCC3)Cc3nnnn3Cc3ccco3)c(=O)[nH]c2c1C,-4%,-14%
CCn1cc(CNC(=O)C2C3CCC(C3)C2C(=O)O)cn1 (centres undefined),-9%,/
CC(=O)Nc1cccc(C(=O)NC(C)c2ccc(S(N)(=O)=O)cc2)c1 (centres undefined),-8%,/
COc1ccccc1CNC(=O)Cn1c(=O)oc2cc(S(=O)(=O)NCc3ccccc3)ccc21,-12%,-17%
O=C(O)c1cc(N2C(=O)C3C4C=CC(C4)C3C2=O)ccc1N1CCOCC1 (centres undefined),2%,-6%
Cc1ccc(C)c(-n2c(N)c(C(N)=O)sc2=S)c1,-5%,-10%
NC(=O)C1CCN(c2nc(-c3ccc(Br)cc3)cs2)CC1,-10%&-20%,-8%&-12%
NC(=O)c1sc2nnc(-c3ccccc3)c(-c3ccccc3)c2c1N,-17%,-2%
COc1ccc(NC(=O)Cn2nc(-c3ccccc3)c3cnc4ccc(C)cc4c32)cc1,-9%,-15%
Cc1ccc(C)c(NC(=O)CN(C)C(=O)CN2C(=O)C3CCCCC3C2=O)c1 (centres undefined),-13%,i
COc1ccc(CCC(=O)NC(C)C)cc1,-9%,-24%

# Continued.
SMILES,VACV Venus inh,VACV mCherry inh
CC1(C)C2([N+](=O)[O-])CN3CC1([N+](=O)[O-])CN(C2)C3c1cccnc1 (centres undefined),-1%,-12%
COc1ccc(NC(=O)CCCCCN2C(=O)[C@@H]3Cc4ccccc4CN3C2=O)cc1Cl,-17%,0%
O=C(C[n+]1cn(C(F)F)c2ccccc21)c1ccc(Br)cc1,6%,i
Cc1cccc(-c2nn(-c3ccccc3)cc2C(=O)NCC(c2cccs2)N2CCOCC2)c1 (centres undefined),-28%,-12%
O=C(CCC(=O)c1ccccc1)NCc1ccccc1,-1%,i
FC(F)(F)c1cccc(-n2cc(-c3ccccc3)[nH]c2=S)c1,-1%,-16%
COc1cc(C)nc(Oc2ccc(=O)[nH]n2)n1,-17%,/
Cc1cc(C)cc(NC(=O)N2CCN(C/C=C/c3ccccc3)CC2)c1,-17%,-26%
O=C(NCc1nc2ccccc2[nH]1)C1=C[C@H](c2ccc(C(F)(F)F)cc2)C[C@H](OCCCCO)O1,?,i
O=C(c1ccc2ccccc2c1)C1CCCN(S(=O)(=O)c2cccnc2)C1 (centres undefined),-18%,-25%
CCOC(=O)c1c(C)n(-c2ccc(C)cc2)c2ccc(OCC(O)CNCCCO)cc12 (centres undefined),-26%,?
Cc1ccc(S(=O)(=O)N(CC(=O)NCc2cccnc2)c2ccc(F)cc2)cc1,-8%,-10%
Cc1ccc(-n2c(=O)cc(NCc3cccnc3)[nH]c2=O)cc1,-13%,-12%
CCC1=Nc2cc(C(=O)N3CCC(C)CC3)ccc2Sc2ccc(C)cc21,-8%,-25%
CC(=O)Nc1ccc(NC(=O)CSc2nc(=O)n3cccc(C)c3n2)cc1,-11%,-14%
C/C(CC(=O)Nc1cccc(C(F)(F)F)c1)=N\NC(=O)c1ccncc1,-12%,-6%
CCOc1ccc(N=C(/C(C(=O)C(=O)N2CCOCC2)=C(\O)c2ccccc2)c2ccccc2)cc1,-10%,-13%
Cc1ccc(C)c(N2CCN(S(=O)(=O)c3ccc(C4CCCCC4)cc3)CC2)c1,20%,8%
COc1cccc(OC)c1OCCN1CCN(C(=O)c2ccco2)CC1,4%,-5%
CC1CN(Cc2ccccc2)c2nc3c(c(=O)n(CC(=O)O)c(=O)n3C)n2C1 (centres undefined),-19%,-12%
CCOC(=O)c1c(C)oc2c1c(C=NCC1CCCO1)c(O)c1ccccc12 (centres undefined),-9%,-13%
CCOC(=O)Cn1c(=N)n(CCOc2ccc(Br)cc2)c2ccccc21,-4%,-4%
CC(Oc1ccccc1F)C(=O)Nc1ccc2ccccc2c1 (centres undefined),19%,?
CCCCOC(=O)C(C)Oc1ccc(=O)n(-c2ccccc2)n1 (centres undefined),-13%,1%
CCOc1ccc2ccccc2c1CNCCCN1CCOCC1,-17%,-5%
Cc1ccc(N2CC(=O)N(CC(=O)O)C2=O)cc1,-9%,-2%
COc1ccc(-c2nc3scc(CCNS(=O)(=O)c4ccc(NC(C)=O)cc4)n3n2)cc1,-15%,-12%
CC(C)Cn1c(=O)c2sccc2n2c(CCCC(=O)N3CCN(c4ccc(F)cc4)CC3)nnc12,-5%,i

# Screening results (PubChem BioAssay)
